High-throughput results from PubChem.
TRPC6 activator: mouse TRPC6 channel activators, primary screen, cell-based, HEK293, membrane potential dye; 310,000 tested, 0.13% active; AID 2550, 2010; HEK293-TRPC6 membrane potential dye fluorescence; active compounds read high; B-score at 10 µM;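 active = B-score of the integrated fluorescence ratio above library mean plus 3 SD, and starting fluorescence ratio within library mean plus 5 SD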;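 note: higher score means more depolarization so channel activation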
TRPC4 agonist: activators of mouse TRPC4 channel, primary screen, Fluo4 calcium, HEK293 TRPC4beta/mu-opioid cells | Short transient receptor potential channel 4 (Mus musculus), Q9QUQ5 | Fluo4 calcium fluorescence; active compounds read high | B-score at 10 µM | 310,000 tested, 0.49% active | AID 2237, 2010;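 active = B-score above 5 SD of library B-scores, and initial fluorescence ratio not above library mean plus 5 SD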;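 note: positive B-score marks a calcium rise read as TRPC4 activation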
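Material: TRPC4beta and mu-opioid receptor HEK293 stable cells | Incubation: 45 min room-temperature Fluo4 loading, 110 s read | Detection: Kinetic Fluo4 calcium fluorescence | Measure: Integrated baseline-normalised fluorescence ratio, converted to per-well B score | Benchmarks: Low control buffer alone, high control maximal DAMGO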
TRPC6 inh: mouse TRPC6 channel inhibitors, primary screen, cell-based, HEK293, membrane potential dye; Short transient receptor potential channel 6 (Mus musculus), Q61143; ACh-evoked depolarization; active compounds read low; B-score at 10 µM; 310,000 tested, 1.1% active; AID 2553, 2010;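 active = B-score under library mean minus 3 SD, initial fluorescence not abnormally high, positive integrated signal ratio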;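 note: B-score derived from integrated fluorescence ratio over the kinetic read; more negative B-score means stronger inhibition of depolarization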
MrgX1 antagonist: antagonists of human MrgX1 receptor, primary screen, HEK293 cells, Fluo-4 calcium flux; Mas-related G-protein coupled receptor member X1 (Homo sapiens), Q96LB2; BAM8-22 antagonism; active compounds read low; B-score at 10 µM; 310,000 tested, 1.3% active; AID 588676, 2011;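 active = calcium-response B-score plate-corrected more than 3 library SD below zero, starting fluorescence within 5 deviations, no agonist response on first addition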;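 note: peak minus trough fluorescence over baseline after final BAM8-22 challenge near maximal dose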
Target sequence (Q96LB2 whole entry, looked up): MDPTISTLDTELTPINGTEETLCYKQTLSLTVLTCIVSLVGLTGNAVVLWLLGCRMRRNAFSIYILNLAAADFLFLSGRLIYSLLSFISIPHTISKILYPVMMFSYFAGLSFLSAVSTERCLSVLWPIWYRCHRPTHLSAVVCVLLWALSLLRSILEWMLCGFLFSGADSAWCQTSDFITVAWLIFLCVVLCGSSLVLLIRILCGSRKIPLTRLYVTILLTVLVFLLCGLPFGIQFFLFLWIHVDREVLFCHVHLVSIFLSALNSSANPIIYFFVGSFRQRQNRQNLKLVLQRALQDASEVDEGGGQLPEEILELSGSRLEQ
KLF5 inh: KLF5 expression inhibitors, primary screen, DLD-1 cells, luminescence | DLD-1 KLF5 promoter-luciferase reporter | AID 1700, 2009 | inhibition, % at 5 µM | 290,000 tested, 0.23% active;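 active = inhibition above a per-plate limit of that plate's mean compound inhibition plus 3 SD, cut at about 60% in these data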;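 note: 0% = DMSO wells and 100% = LY294002 at 200 µM; higher means less KLF5 promoter-driven luciferase light; inactives centre near -14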
aSyn UTR inh: MLPCN primary screen, SNCA 5' untranslated region. inhibition, % (tested at 7.5 µM). 300,000 tested, 0.82% active. alpha-synuclein 5'UTR reporter, inhibitor activity; in the data active = inhibition above about 60%;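 note: H4 neuroglioblastoma cells stably carrying SNCA 5'UTR luciferase fusion; 0% = DMSO wells and 100% = positive control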
TRPC4 block: inhibitors of mouse TRPC4 channel, primary screen, Fluo4 calcium, HEK293 TRPC4beta/mu-opioid cells. Short transient receptor potential channel 4 (Mus musculus), Q9QUQ5. DAMGO-evoked Fluo4 calcium flux; active compounds read low. B-score at 10 µM. 300,000 tested, 0.39% active;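 active = B-score over 3 SD under the library average, no early fluorescence shift, positive overall ratio signal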
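Assay system: HEK293 cells with stable TRPC4beta plus mu-opioid receptor expression. Dosing: single dose. Measured by: Fluo4 Ca2+ flux fluorescence. Also added: DAMGO in two steps, submaximal then maximal. Read-out: B score from integrated Fluo4 fluorescence ratio.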
SKKanGAS inh: S. pyogenes SKKanGAS growth inhibitors in kanamycin, primary screen, streptokinase expression inhibitor project, SKKanGAS strain, BacTiter-Glo luminescence | 6 h | inhibition, % at 7.5 µM | 300,000 tested, 1.3% active | AID 1662, 2009;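 active = mean replicate score, as percent of positive control median, at least 50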;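 note: strain carries kanamycin resistance gene driven by streptokinase promoter and grows in 40 µg/ml kanamycin; loss of luminescence reflects streptokinase promoter inhibition or plain growth inhibition; 0% = median of DMSO wells and 100% = positive control at its reference dose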
TRPC4 PAM: positive allosteric modulators of TRPC4, primary screen, cell-based, mouse TRPC4beta, HEK293 mu-opioid, Fluo-4 calcium. AID 2227, 2009. B-score at 10 µM. 310,000 tested, 0.42% active. Short transient receptor potential channel 4 (Mus musculus), Q9QUQ5. DAMGO EC20, Fluo-4 Ca2+ flux; active compounds read high;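 active = B-score of calcium response area above 5 SD of library B-scores, with initial fluorescence ratio within 5 SD of library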;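 note: B-score of integrated fluorescence ratio over time as area under calcium response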
IEC-6 tox: cytotoxicity in IEC-6 intestinal epithelial cells, primary screen, cytotoxicity control for KLF5 inhibitor project, cell-based, luminescence; IEC-6 cytotoxicity, luminescence viability; inhibition, % at 5 µM; 290,000 tested, 0.78% active; in the data active = inhibition above about 22%;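 note: 0% = plate median of test compound wells and 100% = cytotoxic reference compound wells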
Active calls of the source: *; i = inactive; / = no result given.

SMILES	TRPC6 activator	TRPC4 agonist	TRPC6 inh	MrgX1 antagonist	KLF5 inh	aSyn UTR inh	TRPC4 block	SKKanGAS inh	TRPC4 PAM	IEC-6 tox
C=CCOc1ccc(/C(O)=C2/C(=O)C(=O)N(CCCN3CCOCC3)C2c2ccccc2)cc1 (centres undefined)	i	i	i	i	-23	3	i	-2	i	1
CCc1cn([C@H]2C[C@H](O)[C@@H](CO)O2)c(=O)[nH]c1=O	i	i	i	i	-4	0	i	0	i	2
Cn1c(=O)c2c(nc(NCc3ccco3)n2Cc2ccccc2Cl)n(C)c1=O	i	i	i	i	-4	6	i	13	i	-2
Cc1cc(C)c(NC(=O)OCCN2CCOCC2)c(C)c1	i	i	i	i	-28	11	i	8	i	1
CCOC(=O)c1c(C(C#N)C#N)cc(C)nc1C	i	i	i	i	0	-7	i	0	i	-2
CC(=O)SCC(Cc1ccccc1)C(=O)NCC(=O)OCc1ccccc1 (centres undefined)	i	i	i	i	-11	-7	i	-2	i	-9
O=C(c1ccco1)N1CCN(CCOCCOc2cccc3ccccc23)CC1	i	i	i	i	-15	36	i	3	i	-2
COC(=O)Cn1cc(C(=O)OC)cc(Br)c1=O	i	i	i	i	-16	-19	i	5	i	1
CCCC1O[C@@H]2C[C@H]3[C@@H]4CCC5=CC(=O)C=C[C@]5(C)[C@H]4[C@@H](O)C[C@]3(C)[C@]2(C(=O)CO)O1 (some centres undefined)	i	i	i	i	1	39	i	5	i	11
CC1(C)O[C@@H]2C[C@H]3[C@@H]4C[C@H](F)C5=CC(=O)C=C[C@]5(C)[C@H]4[C@@H](O)C[C@]3(C)[C@]2(C(=O)CO)O1	/	/	/	i	/	/	/	/	/	/
Cc1ccc(-c2nn(C)c(=O)c3ccccc23)cc1CNC(=O)CSc1nc2ccccc2o1	i	i	i	i	-9	5	i	2	i	2
CCOC(=O)c1[nH]c2ccc(OC)cc2c1C	i	i	i	i	-38	-122	i	-6	i	-1
O=C1OC2CCC1(c1ccccc1)C2 (centres undefined)	i	i	i	i	-10	-10	i	3	i	-4
CCOc1cccc(-c2nnc3sc(C4CCCCC4)nn23)c1	i	i	i	i	-3	5	i	-3	i	-2
O=C(CC1SC2=NCCN2C1=O)Nc1ccccc1 (centres undefined)	i	i	i	i	4	-5	i	0	i	-11
CCCCNC(=O)N1CCOCCOCCN(C(=O)NCCCC)CCOCCOCC1	i	i	i	i	-11	9	i	1	i	4
CCOc1ccc(S(=O)(=O)N(C)CCO)cc1-c1nc2c(C(C)(C)C)nn(C)c2c(=O)[nH]1	i	i	i	i	0	29	i	2	i	-6
Cc1cc(C)n(-c2nnc(C)n2/N=C/c2ccco2)n1	i	i	i	i	9	-1	i	-2	i	-1
CC1(C)CC(=O)C(C=N)=C(O)C1	i	i	i	i	-21	-7	i	-3	i	-1
CC(O)Cn1cnc2c1c(=O)n(C)c(=O)n2C (centres undefined)	i	i	i	i	0	13	i	-3	i	3
C/C(=N\O)C(=O)NCCCNCCCN(C)C	i	i	i	i	-14	-9	i	8	i	2
Cn1c(=NCC(O)COc2ccccc2)sc2ccccc21 (centres undefined)	i	i	i	i	-8	-36	i	2	i	2
COc1cccc(C2C(C(=O)c3sc(C)nc3C)=C(O)C(=O)N2CCN2CCOCC2)c1OC (centres undefined)	i	i	i	i	-13	1	i	-3	i	-2
COc1ccc(CCN(C)CCCC(C#N)(c2cc(OC)c(OC)c(OC)c2)C(C)C)cc1OC (centres undefined)	i	i	i	i	-2	-1	i	-4	i	2
Cc1nc2n[nH]c(N)c2c2c1COC(C)(C)C2	i	i	i	i	15	-14	i	-10	i	8
Cc1nn2cnc3sc4c(c3c2nc1=O)CCCC4	i	i	i	i	-27	-16	i	-2	i	-1
CCC(CO)NCCNC(CC)CO (centres undefined)	i	i	i	i	-5	13	i	-6	i	2
OC1CN=C2Sc3ccccc3N2C1 (centres undefined)	i	i	i	i	19	-8	i	-1	i	5
Cc1nnc2n(-c3ccccc3)c(=O)c3c4c(sc3n12)COC(C)(C)C4	i	i	i	i	-39	-18	i	4	i	-2
Cn1c(=O)[nH]c2ncn(C)c2c1=O	i	i	i	i	/	-14	i	2	i	/
CN1CCN(/C=N/c2sc3c(c2C#N)CCCCC3)CC1	i	i	i	i	-120	-147	i	-3	i	4
COc1ccccc1C1/C(=C(/O)c2ccc(C)cc2)C(=O)C(=O)N1Cc1ccco1 (centres undefined)	i	i	i	i	13	-9	i	4	i	5
COc1ccc(CC(=O)n2c(CC#N)nc3ccccc32)cc1OC	i	i	i	i	-39	7	i	-1	i	0
Cc1cc(C)n(-c2ncnc3sc(C)c(C)c23)n1	i	i	i	i	13	-8	i	-1	i	11
CCCc1[nH]n(-c2nc3ccccc3s2)c(=O)c1C=NCCN1CCOCC1	i	i	i	i	-68	-14	i	5	i	-4
CNCCc1ccccn1	i	i	i	i	-19	15	i	-6	i	2
Nc1nnnn1N=C1CCCCC1	i	i	i	i	-3	-7	i	17	i	-5
CC(=O)OCC(=O)[C@@]1(O)CC[C@H]2[C@@H]3CCC4=CC(=O)CC[C@]4(C)[C@H]3C(=O)C[C@@]21C	i	i	i	i	/	8	i	-5	i	/
O=C(c1ccccc1)n1c(=S)nc2ccccn21	i	i	i	i	/	-124	i	24	i	/
O=C(O)[C@@H](O)[C@H](O)C(=O)O	i	i	i	i	/	1	i	-2	i	/
C=CC[N+](C)(C)CCCNC(=O)/C=N/O	i	i	i	i	-14	-7	i	3	i	10
Nc1ccc(N=Nc2ccccc2)c(N)n1	i	i	i	i	-15	-45	i	2	i	4
CCc1cccc2c3c([nH]c12)C(CC)(CC(=O)O)OCC3 (centres undefined)	i	i	i	i	-9	13	i	8	i	-2
CCCCCC#CCC#CCC#CCC#CCCCC(=O)O	i	i	i	i	-23	5	i	21	i	6
Cc1nnc(C)n1/N=C/c1cccn1C	i	i	i	i	5	-15	i	-7	i	0
CCCc1[nH]nc2c1C(c1c(C)nn(-c3ccccc3)c1Cl)C(C#N)=C(N)O2 (centres undefined)	i	i	i	i	-29	13	i	-4	i	7
Cc1cc(OCCN2CCCCC2)nc2ccccc12	i	i	i	i	-36	17	i	-2	17*	-5
COc1ccc(/C(O)=C2/C(=O)C(=O)N(CCN3CCOCC3)C2c2cccnc2)cc1OC (centres undefined)	i	i	i	i	-33	-12	i	10	i	-2
Cc1ccsc1C1NC(=O)c2c(sc3c2CCCC3)N1 (centres undefined)	i	i	i	i	-108	-218	/	11	i	6
Cc1cc(=O)n(CCC(=O)O)c2ccccc12	i	i	i	i	-9	20	i	1	i	-2
COC(=O)c1ccc(C2/C(=C(\O)c3cccc(OC)c3)C(=O)C(=O)N2CCCN2CCOCC2)cc1 (centres undefined)	i	i	i	i	-16	31	i	6	i	3
CCOc1ccc(-c2nc(C#N)c(N3CCN(CC)CC3)o2)cc1	i	i	i	i	-11	7	i	7	i	-3
CCOc1ccc(/C(O)=C2/C(=O)C(=O)N(c3cc(C)on3)C2c2ccc(C(=O)OC)cc2)cc1 (centres undefined)	i	i	i	i	-15	-3	i	23	i	5
CCC(C)N(C)C(=O)c1cc2ccccc2c(-c2ccccc2Cl)n1 (centres undefined)	i	i	i	i	16	5	i	-1	i	-3
Nc1nc(NC(=O)Cc2ccccc2)nn1-c1ccccc1	i	i	i	i	-21	-15	i	2	i	-2
CCC(=O)N[C@@H]1CC(C(C)(C)NC(=O)CC)CC=C1C (some centres undefined)	i	i	i	i	0	3	i	2	i	-1
CN1CC(=O)Nc2ccc(F)cc2C1=O	i	i	i	i	-12	-4	i	1	i	-3
Cn1c(CSc2ncn[nH]2)nc2ccccc21	i	i	i	i	-8	9	i	-5	i	0
O=S(=O)(c1ccc2ccccc2c1)N(CC(O)CN1CCOCC1)c1ccccc1 (centres undefined)	i	i	i	i	-23	-5	i	-4	i	-6
O=C(Nc1ccccc1C(=O)NCCCn1ccnc1)c1ccccc1	i	i	i	i	1	-2	i	5	i	2

Next part.
SMILES	TRPC6 activator	TRPC4 agonist	TRPC6 inh	MrgX1 antagonist	KLF5 inh	aSyn UTR inh	TRPC4 block	SKKanGAS inh	TRPC4 PAM	IEC-6 tox
COc1cc(OC)cc(C(=O)N2CCC(N3CCCCCC3)CC2)c1	i	i	i	i	-14	15	i	-5	i	-2
CCOC(=O)c1cc(C)n(-c2ccc(OC)c(OC)c2)c1C	i	i	i	i	-37	-12	i	1	i	2
Oc1c(I)cc(I)c2cccnc12	i	i	i	i	2	-5	i	92*	i	-2
CCN(CC)CCNc1nc(-c2ccco2)c2c(c1C#N)CC(C)(C)OC2	i	i	i	i	-4	-8	i	/	i	0
Cc1cc(N2CCN(C)CC2)n2nc(-c3ccc(Cl)cc3)nc2n1	i	i	-6.9*	i	-25	11	i	3	i	0
CCOc1ccc(CC2CC(=O)NC2=O)cc1 (centres undefined)	i	i	i	i	-10	-2	i	-1	i	4
CC[C@H](CO)NCCN[C@H](CC)CO	i	i	i	i	-3	-11	i	2	i	7
O=C(O)CCC(=O)c1ccc2ccc3cccc4ccc1c2c34	i	i	i	i	3	21	i	2	i	9
O=C(NCc1cccnc1)/C(=N\O)c1ccccc1	i	i	i	i	5	-2	i	-2	i	0
CN(C)CCOC(c1ccc(Cl)cc1)c1ccccn1 (centres undefined)	i	i	i	i	0	-20	i	1	i	2
CCOC(=O)CC1=C(C(=O)OCC)C(c2ccc(OC)c(OC)c2)C(C#N)=C(N)O1 (centres undefined)	i	i	i	i	-7	12	i	3	i	-2
Cc1nc2sc(C#N)c(N)c2c2c1CCCC2	i	i	i	i	-5	22	/	-6	i	0

Record cards, from the list above. Order of screens: TRPC6 activator | TRPC4 agonist | TRPC6 inh | MrgX1 antagonist | KLF5 inh | aSyn UTR inh | TRPC4 block | SKKanGAS inh | TRPC4 PAM | IEC-6 tox
Entry for CC[C@H](CO)NCCN[C@H](CC)CO → i | i | i | i | -3 | -11 | i | 2 | i | 7
Entry for CCN(CC)CCNc1nc(-c2ccco2)c2c(c1C#N)CC(C)(C)OC2 → i | i | i | i | -4 | -8 | i | / | i | 0
Entry for Cc1cc(N2CCN(C)CC2)n2nc(-c3ccc(Cl)cc3)nc2n1 → i | i | -6.9* | i | -25 | 11 | i | 3 | i | 0
Entry for CCOc1ccc(CC2CC(=O)NC2=O)cc1 (centres undefined) → i | i | i | i | -10 | -2 | i | -1 | i | 4

These rows are one share of the data; the hit share may differ from the screen's.
